Screening results from PubChem BioAssay.
Kir21 block = Kir2.1 (mouse) channel inhibition | P35561 | 310,000 tested, 0.85% active | B-score at 10 µM | HEK293-Kir2.1, FluxOR thallium flux fluorescence; hits give low values;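 active = fluorescence ratio B-score at or below minus 3 SD of library scores, with starting-brightness B-score within 2 SD, cut at about -4.2 in these data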;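 also: channel flux triggered by added potassium and thallium sulfate stimulus; B-score of peak minus minimum fluorescence over baseline after thallium stimulus; more negative B-score means stronger Kir2.1 block with less thallium influx; some compounds called inactive have numbers as strong as hits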
Target sequence (P35561 whole entry, looked up): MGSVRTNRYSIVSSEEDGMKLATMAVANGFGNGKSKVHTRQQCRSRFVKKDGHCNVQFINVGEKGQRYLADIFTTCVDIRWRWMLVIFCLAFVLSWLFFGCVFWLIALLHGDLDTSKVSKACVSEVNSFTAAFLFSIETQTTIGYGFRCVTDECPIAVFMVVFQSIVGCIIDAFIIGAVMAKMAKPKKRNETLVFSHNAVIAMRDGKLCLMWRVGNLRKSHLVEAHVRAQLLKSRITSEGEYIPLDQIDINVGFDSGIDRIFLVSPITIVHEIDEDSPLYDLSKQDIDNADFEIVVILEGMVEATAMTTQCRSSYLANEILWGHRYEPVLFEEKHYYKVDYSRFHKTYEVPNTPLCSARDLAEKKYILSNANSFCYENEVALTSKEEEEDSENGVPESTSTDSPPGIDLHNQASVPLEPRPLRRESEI
* marks the source's active call; other numbers are inactive results. Only part of the results is shown, and most or all hits are left out here.

No.	Kir21 block	SMILES
1	0.17	O=C(N1CCOCC1)N1CCCC(c2nc(-c3cccs3)no2)C1 (stereo not drawn)
2	0.65	COc1cc(C2C3C(C)N(C)C(=O)N(C)C3N(C)C(=O)N2C)ccc1O (stereo not drawn)
3	0.04	O=C(O)CNC(=O)C1CCCN1C(=O)CNC(=O)OCc1ccccc1 (stereo not drawn)
4	-0.34	O=C(NC1=NCCS1)c1cccc(F)c1
5	1.6	O=c1[nH]nc(C(F)(F)F)c2nnn(Cc3ccccc3Cl)c12
6	1.2	CCN(CC)CC(=O)NC1CCCc2c1cnn2-c1cc(F)cc(F)c1 (stereo not drawn)
7	0.05	N/C(=N\OC(=O)COc1ccc(Cl)cc1)c1cccnc1
8	-3	O=C(CNC1CCCC1)Nc1ccc(S(=O)(=O)N2CCCCC2)cc1
9	0.35	CC(C)(C)c1cccc(P(=O)(c2ccccc2)c2ccccc2)c1O
10	-0.28	CCOC(=O)Cc1csc(NC(=O)c2c(-c3c(F)cccc3Cl)noc2C)n1
11	1.9	CCCc1cc(N2CCC(C(N)=O)CC2)nc(-c2ccccc2)n1
12	-0.03	Cc1ccc(C(=O)N2CCCCC2)cc1S(=O)(=O)N1CCCC1
13	1.4	Cc1ccc(C(CC(N)=O)c2ccco2)cc1 (stereo not drawn)
14	2.1	Nc1nc2sc3c(c2c(=O)s1)CCCC3
15	0.76	CN(Cc1ccon1)C(=O)c1ccc2nc(Cc3cccc(Cl)c3)oc2c1
16	1.3	Cc1cccc(C)c1NS(=O)(=O)c1c(C)[nH]c(=O)[nH]c1=O
17	0.04	Cc1ccc2nc(SCC(=O)NC3CC3)[nH]c2c1
18	0.13	COc1ccc2c(c1)CCc1cnc(N)nc1-2
19	0.49	O=C(Nc1ccccc1)Nc1nc2ccccc2s1
20	-0.2	CCN(C(=O)CSc1nncn1-c1ccccc1)C1CCS(=O)(=O)C1 (stereo not drawn)
21	0.17	COc1cc(N)c(Cc2nccc3cc(OC)c(OC)cc23)cc1OC
22	-0.63	CC(=O)c1c(CC(=O)O)[nH]n(-c2nc3ccccc3s2)c1=O
23	-0.67	O=S(=O)(c1ccc(Cl)c(F)c1)N1CCC(c2nc(-c3ccncc3)no2)CC1
24	-1.1	O=C1COc2ccc(C(=O)COC(=O)Cn3cnc4ccccc43)cc2N1
25	1.3	NC(=O)CC[C@H](NC(=O)c1ccc(F)cc1)C(=O)OCC(=O)NCc1ccc(F)cc1
26	1.1	COc1ccc2oc(=O)c(C(=O)NCc3ccc4c(c3)OCO4)cc2c1
27	-0.72	Cc1nc2nc[nH]n2c(=O)c1CCOC(=O)c1ccccc1F
28	-0.16	COc1ccccc1NC(=O)CC(=O)Nc1ccccc1OC
29	0.91	CC(C)CCNC(=O)C1CCN(C(=O)N(C)C)CC1
30	0.81	Cn1nnnc1SCC(=O)C(C)(C)C

Some of these compounds in order of the Kir21 block value, ascending.
No.	Kir21 block	SMILES
8	-3	O=C(CNC1CCCC1)Nc1ccc(S(=O)(=O)N2CCCCC2)cc1
4	-0.34	O=C(NC1=NCCS1)c1cccc(F)c1
12	-0.03	Cc1ccc(C(=O)N2CCCCC2)cc1S(=O)(=O)N1CCCC1
9	0.35	CC(C)(C)c1cccc(P(=O)(c2ccccc2)c2ccccc2)c1O
25	1.3	NC(=O)CC[C@H](NC(=O)c1ccc(F)cc1)C(=O)OCC(=O)NCc1ccc(F)cc1
14	2.1	Nc1nc2sc3c(c2c(=O)s1)CCCC3

4 of the compounds above, as labelled records:
[5] O=c1[nH]nc(C(F)(F)F)c2nnn(Cc3ccccc3Cl)c12
  Kir21 block: 1.6
[17] Cc1ccc2nc(SCC(=O)NC3CC3)[nH]c2c1
  Kir21 block: 0.04
[15] CN(Cc1ccon1)C(=O)c1ccc2nc(Cc3cccc(Cl)c3)oc2c1
  Kir21 block: 0.76
[7] N/C(=N\OC(=O)COc1ccc(Cl)cc1)c1cccnc1
  Kir21 block: 0.05

Following part:
No.	Kir21 block	SMILES
31	-0.42	CN(C)S(=O)(=O)c1ccc(NC(=O)CN2CCCCCC2)cc1
32	0.08	NC(=O)c1ccccc1N/C=C/C(=O)c1cccs1
33	-1.1	COc1ccc(C(c2nnnn2CCc2ccccc2)N2CCN(C3CCCC3)CC2)cc1OC (stereo not drawn)
34	-0.96	CCCC12CN3CC(C)(CN(C1)C3c1ccc(OC(C)C)cc1)C2=O (stereo not drawn)
35	1.5	CCC(C(=O)OC)n1c(-c2ccccc2)nc2ccccc2c1=O (stereo not drawn)
36	0.17	Cn1c(=O)n(C)c2cc(S(=O)(=O)Nc3ccccc3)ccc21
37	0.16	O=C(CSc1nncn1-c1ccccc1)Nc1ccccc1F
38	0.22	CCN(CC)C(=O)CCCC(=O)N(CC)CC
39	0.98	O=C(NCc1ccc(Cl)cc1)NCc1ccc(Cl)cc1
40	0.15	O=C(CNC(=O)c1ccccc1)NCC(O)c1ccc([N+](=O)[O-])cc1 (stereo not drawn)
41	2.1	CCOC(=O)CN1C(=O)C(O)(CC(=O)c2ccccn2)c2ccccc21 (stereo not drawn)
42	-0.52	CN(C)c1ccc(NC(=O)c2ccc(Cn3cc([N+](=O)[O-])cn3)cc2)cc1
43	-3.6	COc1ccc(CCNC(=O)C2CC(c3c(Cl)cccc3Cl)=NO2)cc1 (stereo not drawn)
44	-0.04	Cn1nc(-c2ccccc2)c(CO)c1Oc1ccc(F)cc1
45	0.68	COC(=O)c1cc(N2CCN(C)CC2)nc2ccccc12
46	0.58	CC1CCC(NC(=O)CCN2C(=O)C3C4C=CC(C4)C3C2=O)CC1 (stereo not drawn)
47	0.09	Cc1cnc(C(=O)Nc2nnc(SCc3c(Cl)cccc3Cl)s2)cn1
48	-0.35	CNS(=O)(=O)c1cccc(C(=O)OCC(=O)NCCCc2ccccc2)c1
49	0.47	CC(=O)Nc1ccc(OC(F)(F)C(F)F)c(NC(C)=O)c1
50	-2.3	Cc1ccc(-n2ncc(C(=O)NC3CC3)c2C2CCN(C(=O)OC(C)(C)C)CC2)c(C)c1
51	0.76	NC(=O)c1c(NC(=O)CN2CCOCC2)sc2c1CCC2
52	0.31	N#Cc1ccc(OCC(O)CS(=O)(=O)c2ccc(F)cc2)cc1 (stereo not drawn)
53	-0.23	Cc1[nH]c(=S)n(CC2CCCO2)c1C (stereo not drawn)
54	0.52	COc1ccc(/C=N\N=C2/SC(CC(=O)O)C(=O)N2c2ccc(O)cc2)cc1OC (stereo not drawn)
55	-1.6	Cn1c(NCc2cccnc2)nc2c1c(=O)n(Cc1ccccc1F)c(=O)n2C
56	1.1	CCCN1Cc2cccc(C(=O)NC(CC(=O)OCC)c3ccc(OC(C)C)cc3)c2C1=O (stereo not drawn)
57	0.05	O=C(CNC(=O)c1ccc2c(c1)OCCO2)N/N=C/c1ccc(Cl)cc1
58	-0.25	Cc1c(C(=O)N2CC(C)OC(C)C2)sc2nc(-c3ccccc3)cn12 (stereo not drawn)
59	-1	CCc1ccccc1N(CC)C(=O)c1cn(C)c(=O)c2cc(OC)c(OC)cc12
60	0.57	O=C1COc2ccc(S(=O)(=O)CCC(=O)N3CCN(c4cccc(Cl)c4)CC3)cc2N1
61	-2.1	O=C(CSc1nnc(COc2ccccc2)n1-c1ccccc1)c1ccccc1
